# Bioassay records from PubChem.
# PABP polyA inh – blocks human PABP binding to poly(A) RNA; inhibition, % at 35 µM; P11940; fluorescence polarization; hit rate 1% among 290,000;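 active = 50% or more with normal probe brightness, or confirmed in later tests; inconclusive = above 50% with abnormal brightness, or retests that disagree; inactive = below 50% or failed in later tests; about a fifth of its hits are not listed in these tables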;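 note: calls also rest on retests at 20 µM and on dose response follow-up; controls were probe without protein and protein plus probe with vehicle; some compounds called inactive have numbers as strong as hits; many hits fall short of the cut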
# Target sequence (P11940 whole entry, looked up): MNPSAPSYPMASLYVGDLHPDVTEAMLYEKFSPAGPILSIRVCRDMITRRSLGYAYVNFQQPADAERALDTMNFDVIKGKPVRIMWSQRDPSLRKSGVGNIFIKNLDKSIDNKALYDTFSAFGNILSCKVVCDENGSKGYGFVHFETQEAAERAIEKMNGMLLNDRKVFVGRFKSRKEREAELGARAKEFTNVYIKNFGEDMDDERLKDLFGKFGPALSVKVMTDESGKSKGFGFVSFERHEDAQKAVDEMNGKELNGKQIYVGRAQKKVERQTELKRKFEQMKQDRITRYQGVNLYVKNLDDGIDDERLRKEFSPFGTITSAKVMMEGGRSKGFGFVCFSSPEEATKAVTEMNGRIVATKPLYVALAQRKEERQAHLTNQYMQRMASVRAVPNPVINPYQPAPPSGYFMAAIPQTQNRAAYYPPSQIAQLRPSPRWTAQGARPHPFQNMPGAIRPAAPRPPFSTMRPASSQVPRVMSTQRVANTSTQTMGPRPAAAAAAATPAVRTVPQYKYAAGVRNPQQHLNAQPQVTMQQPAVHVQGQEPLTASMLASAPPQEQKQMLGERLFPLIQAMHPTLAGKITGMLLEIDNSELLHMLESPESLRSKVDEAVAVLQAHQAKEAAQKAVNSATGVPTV
# HIV Env fusion – HIV envelope-mediated fusion inhibition. hit rate 1.1% among 360,000. HeLa-JRFL Env/CEM21 cell fusion, luciferase. inhibition, % at 12.3 µM;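 active = mean replicate inhibition score of at least 50 and every replicate individually at or above 50; inconclusive = only one of the two criteria met; inactive = mean below 50 and not all replicates reaching 50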;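 note: 0% = plate neutral controls and 100% = maraviroc near 300 nM; one replicate is shown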
# UUG fidelity – alters start codon recognition fidelity in yeast; hit rate 0.13% among 350,000; S. cerevisiae UUG-firefly luciferase reporter, luminescence/redox ratio; activity score, % at 18.7 µM;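 active = replicate mean at a twofold rise or more, about +100% in these data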;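 note: firefly luciferase made from a UUG start codon reports start codon fidelity; reporter light over untreated wells divided by growth signal over untreated wells; some hits fall short of that in this replicate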
# eIF4H inh – inhibitors of RNA binding by human eIF4H. hit rate 0.94% among 290,000. inhibition, % at 35 µM. eIF4H fluorescence polarization binding assay. Q15056;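 active = 50% or more with normal probe brightness, or confirmed in later tests; inconclusive = above 50% with abnormal brightness, or retests that disagree; inactive = below 50% or failed in later tests; about a fifth of its hits are not listed in these tables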;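 note: calls also rest on retests at 20 µM and on dose response follow-up; 0% = protein and probe with vehicle and 100% = probe without protein; strong numbers were not always called active; many hits fall short of the cut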
# Rce1 inh – yeast Ras-converting enzyme inhibition; hit rate 0.27% among 290,000; Q03530; yeast membranes, quenched prenylated peptide cleavage fluorescence; AID 2563; calls only;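 active = fall in fluorescence gain of 50% or more versus controls, with final raw signal at or below 3038400; inconclusive = same 50% fall but final raw signal above 3038400; inactive = fall in fluorescence gain under 50%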;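 note: plate controls were neutral control wells for no effect and wells lacking membranes for full effect; tested at 10 µM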
# Target sequence (Q03530 whole entry, looked up): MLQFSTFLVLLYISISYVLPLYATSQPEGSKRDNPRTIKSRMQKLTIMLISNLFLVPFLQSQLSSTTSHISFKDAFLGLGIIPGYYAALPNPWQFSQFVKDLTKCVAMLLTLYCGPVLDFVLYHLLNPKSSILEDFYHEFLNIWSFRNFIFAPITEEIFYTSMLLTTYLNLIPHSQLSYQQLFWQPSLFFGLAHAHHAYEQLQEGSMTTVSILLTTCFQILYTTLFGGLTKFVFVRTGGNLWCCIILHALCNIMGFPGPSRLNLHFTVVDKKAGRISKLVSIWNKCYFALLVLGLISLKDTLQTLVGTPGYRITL
# MT1-MMP act inh – MT1-MMP (human) activation inhibition. P50281. HT1080 RFP-PRO-GFP cells, GFP/RFP ratio fluorescence, overnight; percent of plate control window, DMSO zero. GFP/RFP ratio change, % at 20 µM. hit rate 0.061% among 360,000;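 active = GFP/RFP ratio change of at least 30% with cell ATP level not reduced by more than half and red fluorescence within 50% of control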; note: strong numbers were not always called active
#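 Assay system: HT1080 RFP-PRO-GFP cells. Benchmarks: DMSO vehicle wells and RFP-L50D-GFP reporter cell wells. Times: overnight cell settling, then overnight compound exposure, 37 °C, 5% CO2. Compound: 20 µM single dose, 1% DMSO. Read-out basis: GFP/RFP fluorescence ratio.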
# CSC inhib – cancer stem cell inhibition; AID 2717; inhibition, % at 7.5 µM; hit rate 1.1% among 300,000; cancer stem cell-like cells viability, luminescence;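 active = mean at 75% or more and at least half the replicates too; inconclusive = mean and replicates disagree; tested in HMLE shEcad cells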;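 note: 0% = median of negative and 100% = median of positive control wells; the first replicate is given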
# eIF4H inh retest – recorded beside eIF4H inh, whose call it bears; inhibition, %; compound at 20 µM; confirmation average;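 mean of two retest wells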
# PABP polyA inh retest – second read-out of PABP polyA inh, no call of its own (marks repeat the call); inhibition, %; compound at 20 µM; confirmation repeats;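 mean of two retest wells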
# MT1-MMP act inh RFP – second read-out of MT1-MMP act inh, no call of its own (marks repeat the call); RFP signal change, %; measured here: RFP expression control read;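 0 = vehicle wells; hits needed this value within 50% of zero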
# Starred values were filed as active, the others as inactive; i = inactive; ? = inconclusive; nt = not tested or not shown. A portion of the library (hit frequency here may not be typical).
SMILES,PABP polyA inh,HIV Env fusion,UUG fidelity,eIF4H inh,Rce1 inh,MT1-MMP act inh,MT1-MMP act inh RFP,CSC inhib,others
O=C(NC1CC(=O)N(c2ccc(Cl)cc2)C1)N1CCN(C(=O)c2ccco2)CC1 (stereo not drawn),nt,-3,nt,nt,i,1,-1,-9,
C#CCSc1nc(Cc2ccc(Cl)cc2)nc2ccccc12,4,27,-17,7,i,-3,-4,71,
O=C(O)c1csc(-c2ccccc2)n1,-5,-12,-10,-16,i,3,5,-9,
Cc1ccc(S(=O)(=O)NC2(C(F)(F)F)NC(=O)N(c3ccccc3F)C2=O)cc1 (stereo not drawn),-2,11,-9,-6,i,3,9,-11,
CC1(C(=O)Nc2ccccc2)CCN1C(=O)Cc1ccc(-c2ccccc2)cc1 (stereo not drawn),nt,44,16,nt,nt,-4,-20,nt,
COc1cc(OC)cc(C(=O)Nc2ncc3c(n2)CC(C)(C)CC3=O)c1,1,nt,3,-7,i,1,5,-24,
Cc1ccc(-c2cc(C(=O)N3CCOCC3)no2)cc1,0,19,-69,3,i,5,4,2,
CCN1C(=O)c2cccc3c(S(=O)(=O)NCCc4c[nH]c5ccccc45)ccc1c23,-6,?,-11,-9,i,2,-2,1,
CCc1cc2c(CN3CCN(C)CC3)cc(=O)oc2cc1O,1,-12,nt,-5,i,-5,1,3,
CC(CC(=O)Nc1ccc2c(c1)c(=O)n(C)n2Cc1cccc(C(F)(F)F)c1)C(F)(F)F (stereo not drawn),nt,6,-26,nt,nt,-1,-8,nt,
CCC(C)c1ccc(N(C(=O)c2ccco2)C(C(=O)NC2CCCC2)c2cccnc2)cc1 (stereo not drawn),3,4,nt,-3,nt,-7,-6,-1,
COc1ccc(C(=O)NNC(=O)CSc2nnnn2-c2cc(OC)cc(OC)c2)cc1,-9,-3,1,1,i,-2,-3,4,
Cc1cc(C)c(NC(=O)c2ccccc2N(C)S(C)(=O)=O)c(C)c1,-8,nt,0,9,i,24,2,-3,
COc1cc(S(=O)(=O)Nc2ccc(C)cc2)ccc1N=Cc1c(C)[nH]n(-c2ccc(C)cc2)c1=O,1,15,nt,-7,i,1,-6,23,
C/C(N)=C(/C#N)C(=O)COC(=O)c1ccc(OCC2CCCO2)cc1 (stereo not drawn),18,9,-9,22,i,2,1,nt,
Cc1ccc(S(=O)(=O)N2C[C@@H]3[C@H]4CC[C@H](C4)[C@@H]3[C@@H](C)[C@@H]2c2ccn([Si](C(C)C)(C(C)C)C(C)C)c2)cc1,nt,5,-23,nt,nt,3,1,nt,
Cc1nnsc1-c1c(C(=O)O)c(C)nn1-c1ccc(OC(F)(F)F)cc1,3,-26,nt,7,i,-2,1,18,
Cc1cccc(C(=O)Nc2ccccc2C(=O)OCc2c(C)noc2C)c1,-2,4,-12,-10,i,-3,-1,nt,
CCCn1cc(S(=O)(=O)c2ccc(C)cc2)c(=O)c2cc(OC)ccc21,-6,5,7,-8,i,-3,1,7,
CC(NS(=O)(=O)c1ccc(Br)cc1)C(=O)NCC1CCCO1 (stereo not drawn),-2,7,-19,-8,i,-2,4,-4,
Cc1cccc(C(=O)Nc2nnc(Cc3ccccc3)s2)c1,-7,-1,-10,-10,i,5,-2,-13,
CC(=O)N1CCN(Cc2nc3cc(NC(=O)c4ccccc4C)ccc3n2C)CC1,-4,nt,-23,-5,i,1,1,-9,
O=c1[nH]cn[nH]1,10,nt,-11,7,i,0,7,-24,
CCOC(=O)C1CCCN(c2c(Nc3ccc(C)c(C)c3)c(=O)c2=O)C1 (stereo not drawn),-5,4,-2,6,i,-3,2,-17,

# The closing 2 records of the part above lead into the next:
SMILES,PABP polyA inh,HIV Env fusion,UUG fidelity,eIF4H inh,Rce1 inh,MT1-MMP act inh,MT1-MMP act inh RFP,CSC inhib,others
O=c1[nH]cn[nH]1,10,nt,-11,7,i,0,7,-24,
CCOC(=O)C1CCCN(c2c(Nc3ccc(C)c(C)c3)c(=O)c2=O)C1 (stereo not drawn),-5,4,-2,6,i,-3,2,-17,
COc1ccc(CC(=O)NC(C)c2ccc(Cl)c(Cl)c2)cc1S(=O)(=O)N1CCOCC1 (stereo not drawn),nt,12,-10,nt,nt,-2,-2,nt,
Cc1ccccc1-c1nc(-c2ccccn2)no1,19,2,nt,0,i,1,0,-1,
COc1ccc(N(CC(=O)N2CCN(c3ccc(Cl)cc3)CC2)S(=O)(=O)c2c(C)n[nH]c2C)cc1,4,33,0,2,i,-1,-9,-9,
COc1ccc(NS(=O)(=O)c2csc(C(N)=O)c2)cc1OC,-9,-19,-22,6,i,-2,-4,16,
Cc1nnc(SCC2=C(C(=O)O)N3C(=O)C(NC(=O)C(C)n4nc(C(F)(F)F)cc4C)C3SC2)s1 (stereo not drawn),4,3,nt,22,i,-5,2,-8,
Cc1cccc(COC(=O)Nc2ccc(NC(=O)c3ccccc3Cl)cc2)c1,-10,2,-12,-4,i,3,-9,14,
C=CCSc1nnc(COc2ccc(=O)n(-c3ccccc3)n2)n1CC,-4,-12,nt,17,i,5,3,-15,
COc1ccc(C(=O)C[n+]2ccc(N)c(C)c2C)cc1,11,27,nt,-2,i,2,-4,-6,
CCOC(=O)C(NC(=O)c1ccccc1F)(Nc1cc(C)on1)C(F)(F)F (stereo not drawn),1,-10,-12,6,i,2,3,2,
CCOC(=O)c1c(NC(=O)c2ccco2)sc2c1CCCCC2,9,nt,-14,-3,i,-5,0,43,
COCCN(C(=O)Cn1nnc2ccccc21)C(C(=O)NC1CCCC1)c1cc(OC)ccc1OC (stereo not drawn),4,nt,-7,-2,i,5,4,-11,
CCOc1ccccc1NC(=O)N1CCCC(c2nc3c(nnn3Cc3ccc(C)cc3)c(=O)[nH]2)C1 (stereo not drawn),-6,38,4,-5,i,3,0,nt,
CCOc1cc(CN2CCCC(C(=O)c3cccc(C(F)(F)F)c3)C2)ccc1O (stereo not drawn),7,-9,nt,-4,i,-1,0,49,
O=C(c1cc2ccccc2o1)N1CCCCCC1,13,-56,-22,-14,i,1,1,8,
O=S(=O)(NC1CCCC1)c1ccccc1Br,17,-18,-21,-6,i,12,1,-4,
COc1ccc(OC)c(NC(=O)NC2(C(F)(F)F)Oc3ccccc3O2)c1,-5,4,-11,-9,i,2,-8,45,
COc1ccc(/C=N\NS(=O)(=O)c2ccc(Cl)cc2)cc1COc1ccccc1[N+](=O)[O-],-8,nt,1,-10,i,-10,-10,10,
COc1ccccc1NC(=O)CC12CC3CC(CC(Br)(C3)C1)C2,5,-1,-15,-6,i,3,4,-25,
O=C(NCCCN1CCOCC1)c1ccc2c(c1)N(Cc1ccccc1)C(=O)c1ccccc1S2=O (stereo not drawn),2,-17,-4,-7,i,-2,2,4,
N#C/C(=C\c1ccc(F)cc1F)S(=O)(=O)c1ccccn1,7,-20,nt,2,i,-7,7,18,
COc1c(Cl)cc(Cl)cc1C(=O)Nc1ccc(NC(C)=O)cc1,0,10,nt,-3,i,0,-1,nt,
Cc1cc(C)c2c(CC(=O)Nc3ccc(Cl)cn3)coc2c1,10,nt,-3,-3,i,1,-1,48,
COc1ccc(/C=C(/NC(=O)c2ccco2)C(=O)NCCc2ccccc2)cc1,8,-4,-17,-2,i,-1,-1,6,
Cn1c(NCc2ccccc2)cc(=O)n(C)c1=O,9,nt,0,2,i,-7,8,8,
COc1ccccc1NC(=O)COc1cccc(-n2cnnn2)c1,2,-24,-13,6,nt,2,3,-18,
CCN(C(=O)COC(=O)c1cnc(C)cn1)C1CCS(=O)(=O)C1 (stereo not drawn),nt,14,-3,nt,i,1,3,3,
COC(C(=O)NNS(=O)(=O)c1ccc([N+](=O)[O-])cc1)c1ccccc1 (stereo not drawn),3,5,-2,-9,i,0,1,-2,
Cc1ccccc1OCC(O)Cn1c(N2CCN(c3ccccc3)CC2)nc2c1c(=O)[nH]c(=O)n2C (stereo not drawn),-3,-36,nt,3,i,4,1,-7,
Cc1ccc(S(=O)(=O)N2CCC(C(=O)NCCCN3CCCCCC3)CC2)cc1,-8,-5,5,-4,nt,-4,-5,-9,
CC(C)(C)c1ccc(Oc2coc3cc(OCC(=O)O)ccc3c2=O)cc1,13,4,-20,-2,i,4,2,-8,
CCCC(=O)N1CCCC1(C)C(=O)NCc1ccc(SC)cc1 (stereo not drawn),nt,-14,-16,nt,nt,-1,3,nt,
Cc1cc(NC(=O)c2ocnc2C)no1,-4,-14,-7,-4,i,-3,-7,-9,
CCOc1ccc(C(=O)CN2C(=O)NC3(CCCCCC3)C2=O)cc1,nt,-10,-19,nt,i,4,0,-5,
Cc1ccc(NC(=O)CCNS(=O)(=O)c2cc(Br)cnc2N)cc1Cl,-10,32,-1,-7,i,7,-5,2,
CO/N=C/NC(=O)c1cn(-c2ccc(F)cc2)c(=O)c2ccccc12,2,-11,-9,-5,i,2,1,-12,
O=C(Cc1ccc(NC(=O)C2CCCN(C(=O)C3CCCCC3)C2)cc1)Nc1ccc(C(=O)N2CCOCC2)cc1 (stereo not drawn),nt,-9,-3,nt,nt,0,0,nt,
O=S(=O)(Nc1cc(S(=O)(=O)N2CCOCC2)ccc1O)c1ccc2c(c1)OCCCO2,nt,nt,-21,nt,nt,-1,8,3,
CCOc1ccc(C(C(=O)NCC2CCCO2)N(Cc2ccccc2)C(=O)c2snc(C(N)=O)c2N)cc1 (stereo not drawn),2,-12,-25,-2,i,-3,-4,-8,
Cc1ccc2nc(/C(C#N)=C\c3ccc(N4CCCCC4)c([N+](=O)[O-])c3)[nH]c2c1,10,nt,nt,4,i,-2,-5,69,
O=C(Nc1cccnc1)c1noc2c1CCCC2,-8,-48,-19,-4,i,-3,-1,nt,
CN(C)c1ccc(CNCCC2(O)CCOC(C)(C)C2)cc1 (stereo not drawn),18,-34,-13,8,nt,1,1,-3,
COc1ccc(OC)c(NS(=O)(=O)c2ccc3c(c2)n(C)c(=O)n3C)c1,-14,-25,-8,-4,i,-4,4,-4,
CC1CCc2[nH]c3ccc(C(=O)NCCCOC(C)C)cc3c2C1 (stereo not drawn),-4,-7,nt,7,i,2,0,3,
CC(=O)c1cnc2c(-c3ccccc3)c(-c3ccccc3)nn2c1C,-6,-7,-11,-19,i,0,-3,4,
O=c1[nH]n(-c2ccccn2)c(=O)c2ccccc12,0,-5,-16,-3,i,0,8,-6,
Cc1cc2ccccc2c(=O)n1CC(=O)NCC(=O)N1CCCC(C)C1 (stereo not drawn),-3,-75,-13,2,i,-7,-8,3,
COc1ccc(NC(=O)CN(C)C(=O)c2cc(C3CC3)nn2-c2ccccc2)cc1,nt,nt,-5,nt,nt,-5,-3,-17,
COc1ccc(NC(=O)c2sc3nc(C)nc(N4CCN(c5ccccn5)CC4)c3c2C)cc1Cl,6,26,-7,-5,i,3,-7,9,
O=C(O)CCCC(=O)Nc1ccc(N2CCCC2)cc1,24,nt,15,69*,i,1,5,-17,eIF4H inh retest=91*;PABP polyA inh retest=36
Cc1ccc(C)c(S(=O)(=O)N(C)C2CCS(=O)(=O)C2)c1 (stereo not drawn),nt,-170,-22,nt,i,-1,2,-5,
CC1CCc2sc(C(=O)N3CCN(c4ncccn4)CC3)cc2C1 (stereo not drawn),-4,-10,-20,-2,i,-2,4,-15,
COc1ccc(-c2cc(-c3nc4ccccn4c3NCc3ccccc3)ccc2OC)cc1,nt,?,9,nt,nt,14,-29,98*,
Cc1ccc(CNC(=O)CNS(=O)(=O)c2ccc(Br)s2)cc1,6,-8,-11,-4,i,5,1,7,
